# Assay outcomes deposited in PubChem by ICCB-Longwood Screening Facility, Harvard Medical School.
# MgrA DNA FP: modulators of Staphylococcus aureus MgrA DNA binding | fluorescence polarization | inhibition, %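 (about 10 µg/mL by stock and volumes)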 | 84,000 compounds, 0.13% hits | AID 602314;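 active means above 50% in either of two replicates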;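 further: 0% = protein plus DNA without compound and 100% = DNA alone without protein; higher means less MgrA bound to DNA so lower polarization; one replicate is shown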
# Sa helicase inh: S. aureus DNA helicase inhibition; purified S. aureus helicase, fluorescence unwinding assay; about half of the hits fall short of the stated cut; inhibition, %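 (tested at about 80 µM)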; AID 485395; 120,000 compounds, 0.05% hits;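 active means both duplicates at 50% or more, or one of them with a favoured structure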;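 further: 0% = mean of negative control wells and 100% = mean of positive control wells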
# An asterisk follows results filed as active; . = not tested or not shown. The list is partial, so the mix of outcomes need not match the whole.
SMILES,MgrA DNA FP,Sa helicase inh
O=C(NN(c1ccccc1)c1ccccc1)c1ccc(S(=O)(=O)N2CCOCC2)cc1,.,-4
Cc1cc(C(=O)COc2ccccc2C(N)=O)c(C)n1C1CC1,.,-14
CC1=CC(=O)C(C(=O)/C=C/c2ccc(Cl)cc2)C(=O)O1 (configuration not stated),2.1,12
CC(=O)NC(=O)c1cc2cc(Br)ccc2oc1=Nc1ccc(C#N)cc1,1.3,.
COC(=O)c1ccccc1-c1ccccc1C(=O)OC,0.2,.
CC(C)CC(=O)Nc1ccc(S(=O)(=O)NCc2ccco2)cc1,6.1,2
CN(CC(=O)Nc1ccc2c(c1)OCO2)S(=O)(=O)c1ccc2c(c1)c(=O)n(C)c(=O)n2C,.,12
COc1ccc(C(=O)Nc2ccccc2C(=O)Nc2ccccn2)cc1,-1.9,1
OC(COc1ccc(Nc2ccccc2)cc1)COc1ccc(Nc2ccccc2)cc1,-0.9,-3
Cc1ccc(Cl)cc1NC(=O)N1CCC(CN2CCOCC2)CC1,0.9,0
O=C1C=C(Nc2ccccc2)C(=O)N1c1ccccc1,0.1,.
COC(=O)/C=C1/OC(c2ccccc2)=CC1=O,6.8,.
Cc1nn(Cc2ccccc2)c(Cl)c1/C=C/C(=O)OCC(=O)N1CCN(C(=O)c2ccco2)CC1,.,21
N#Cc1ccccc1S(=O)(=O)N1CCOCC1,3.0,15
O=c1cc(O)c2sc(Nc3ccccc3)nc2[nH]1,-1.8,3
Oc1ccccc1C1=CC(c2ccc(Br)cc2)n2ncnc2N1 (configuration not stated),.,33
N#Cc1c(N)n(CCN2CCOCC2)c2nc3ccccc3nc12,.,14
Cc1cc(=O)n2[nH]c(-c3ccccc3)c(Br)c2n1,0.2,.
CCN1CCN(C(=O)C23CC4CC(C2)CC(c2ccc(C)cc2)(C4)C3)CC1,.,-30
CC1CN(c2nc(N3CCCC3)nc3ccccc23)CC(C)N1 (configuration not stated),1.1,21
CCOC(=O)c1c(N)cc2[nH]c(=S)[nH]c(=O)c2c1-c1ccccc1,0.7,13
c1ccc(-c2noc(-c3ccccc3)n2)cc1,.,14
NC(=S)NN=C1c2cc(S(=O)(=O)N3CCOCC3)ccc2-c2ccc(S(=O)(=O)N3CCOCC3)cc21,7.4,8
O=C(Nc1cccc(F)c1)N1CCOCC1,-4.2,-4
CCCNC(=O)C1CCN(c2nn3cc(-c4ccc(OC)cc4)nc3s2)CC1,.,4

# Entries of single compounds as entered above:
# CN(CC(=O)Nc1ccc2c(c1)OCO2)S(=O)(=O)c1ccc2c(c1)c(=O)n(C)c(=O)n2C in the list: MgrA DNA FP = .; Sa helicase inh = 12
# N#Cc1ccccc1S(=O)(=O)N1CCOCC1 in the list: MgrA DNA FP = 3.0; Sa helicase inh = 15
# COC(=O)c1ccccc1-c1ccccc1C(=O)OC in the list: MgrA DNA FP = 0.2; Sa helicase inh = .

# The results go on.
SMILES,MgrA DNA FP,Sa helicase inh
CCOc1cc(C(=O)Nc2nnc(-c3cccc([N+](=O)[O-])c3)s2)cc(OCC)c1OCC,-2.2,.
c1ccc(-c2ncc(-c3ccn[nH]3)s2)cc1,5.2,.
O=C(NCc1ccc(-c2ccc(F)cc2F)o1)c1ccc(Cl)cc1,-1.2,.
CCN(C(C)=O)c1ccccc1C,2.7,4
COc1cc2nc(SCC(=O)NCc3ccco3)n3nc(CCn4nc(C)cc4C)nc3c2cc1OC,.,9
CCCNC(c1ccccc1)c1ccncc1 (configuration not stated),-3.8,18
COC(=O)c1sccc1S(=O)(=O)NCc1ccc(S(N)(=O)=O)cc1,.,-2
O=S(=O)(NCC1COc2ccccc2O1)c1ccccc1 (configuration not stated),-1.7,.
COc1ccc(NC(=O)C2CCCCC2)cc1,0.4,15
S=c1nc2ccccc2c2nc(-c3cccnc3)[nH]n12,.,0
Cc1cc(C)n2c(SCC(=O)N(C)C3CCCCC3)nnc2n1,-1.0,19
CC1(C)Cc2c(C#N)c(SCCc3ccccc3)nc(N3CCOCC3)c2CO1,-3.2,4
Cc1ccc(S(=O)(=O)CCc2nnc(N)s2)cc1,-3.0,-1
Cn1ccc2cc(N)ccc21,2.7,-7
C[C@@]1(O)CCOC(=O)C1,0.7,.
O=c1cc(-c2cc(Cl)cc3c2OCOC3)oc2ccc(F)cc12,-1.2,-29
O=C(NCCN1CCC(Cc2ccccc2)CC1)c1ccc(-c2ccccc2)s1,-1.4,2
Cc1cccc(NC(=O)c2ccccn2)c1,.,3
N#Cc1ccc(S(=O)(=O)N2CCCN(c3ccc(C(F)(F)F)cn3)CC2)cc1,-0.6,.
CC(=O)Nc1ccc(-c2nc(-c3ccccc3)no2)cc1,.,8
Cc1ccccc1OCC(=O)NCCN1CCCC1,-0.8,4
CC(=O)c1ccc(C2CC2(Cl)Cl)cc1 (configuration not stated),-1.2,.
O=c1c2cc(-n3cccc3)ccc2oc2ncccc12,0.9,.
CC1(C)CC(CC#N)(Cc2ccccc2)CCO1 (configuration not stated),-1.7,1
Cc1ccc(C(=O)c2c(C)ccc3ccccc23)cc1,0.5,.

# 3 entries from above, sorted by the number in MgrA DNA FP, descending.
SMILES,MgrA DNA FP,Sa helicase inh
CC1CN(c2nc(N3CCCC3)nc3ccccc23)CC(C)N1 (configuration not stated),1.1,21
Cc1ccc(Cl)cc1NC(=O)N1CCC(CN2CCOCC2)CC1,0.9,0
CCCNC(c1ccccc1)c1ccncc1 (configuration not stated),-3.8,18

# (further entries)
SMILES,MgrA DNA FP,Sa helicase inh
CCCN(CCC)S(=O)(=O)c1cccc(C(=O)Nc2ccccc2C(=O)NC2CC2)c1,.,-3
Cc1cc(Oc2ccc(C(F)(F)F)cc2[N+](=O)[O-])ccc1Cl,-3.7,.
COc1cc2c(cc1OC)CN(S(=O)(=O)c1ccc(-n3cnnn3)cc1)CC2,.,-17
Cc1cccc(-c2nn(-c3ccc(F)cc3)cc2C(=O)N2CCN(CCO)CC2)c1,.,0
COc1ccc(OCCCC(=O)n2c(C(C)O)nc3ccccc32)cc1 (configuration not stated),.,-12
O=C(O)/C=C/C(=O)N1CCC(Cc2ccccc2)CC1,-2.2,-16
CCCN1CCC(N(C)CC(=O)OCC)CC1,-1.1,5
CCOc1cc(/C=C2/SC(=NC)N(C)C2=O)ccc1OCC(N)=O,-1.1,-3
COC(=O)C1CCN(c2ncnc3scc(-c4ccccc4)c23)CC1,.,-1
c1ccc(COc2ccc(Oc3ncccn3)cc2)cc1,.,-2
CC1CCCC(NC(=O)C2c3ccccc3C(=O)N2CCc2ccccc2)C1C (configuration not stated),0.6,0
CCc1cc(C(=O)OC)c(N2C(=O)C=CC2=O)s1,.,-12
CS(=O)(=O)c1ccc2nc(NC(=O)c3ccccc3Br)sc2c1,2.4,0
Cc1ccc(C)c(NC(=O)c2ccco2)c1,0.5,0
COc1cccc(Nc2nc(=O)[nH]nc2C)c1,-0.2,10
Cc1[nH]c(=O)[nH]c(=O)c1S(=O)(=O)N1c2ccccc2CC1C (configuration not stated),3.1,-75
COc1cc(NC(C)C(=O)N2CCCCC2)cc(OC)c1 (configuration not stated),.,17
COc1ccc(CNC(=O)CN2CCN(S(=O)(=O)c3ccccc3)CC2)cc1,.,17
Cc1noc(C)c1COC(=O)C(Cc1ccccc1)NC(=O)c1cccs1 (configuration not stated),.,32
O=C(Nc1ccccc1)C1Cc2cc(Cl)ccc2O1 (configuration not stated),.,-8
CC(=O)Oc1ccccc1C(=O)Oc1ccccc1C(=O)O,3.2,.
O=C(Cc1n[nH]c(=O)c2ccccc12)Nc1cc(C(F)(F)F)ccc1N1CCCC1,.,-10
CN(C)c1ccc(CNc2ccc(CNc3ncn[nH]3)cc2)cc1,.,-5
CC1CCCCC1NC(=O)CO/N=C/c1ccc2c(c1)OCO2 (configuration not stated),.,-1
CCN1C(=O)/C(=C2\SC(=Nc3ccc(Cl)cc3)N(C)C2=O)c2ccccc21,1.2,3
# Next section
SMILES,MgrA DNA FP,Sa helicase inh
Cc1ccc(C)c(C(=O)/C=C/C(=O)O)c1,.,-34
CC1=C/C(=N/Nc2nc3ccccc3[nH]2)CC(C)(C)C1,.,15
CC12CN3CC(C)(CN(C1)C31C(=O)Nc3ccccc31)C2O (configuration not stated),2.6,18
COc1cc(C2NC(=O)NC(C)=C2C(=O)OCCc2ccccc2)ccc1OCc1ccccc1 (configuration not stated),-0.3,.
CC(C)CC(=O)Nc1ccccc1C(N)=O,-0.4,8
CC1=NN(c2ccccc2)C(=O)C1=C(C)C,6.7,1
COc1ccccc1/C=C/C(=O)O,.,7
CCOc1ccc(C2C(=O)c3ccccc3C2=O)cc1,.,12
COCCn1c(N)c(C(=O)C(C)(C)C)sc1=S,.,7
COC(=O)CSCCS(=O)(=O)c1ccc(Cl)cc1,-1.4,.
Cc1ccc(-c2csc(NC3OC(=O)c4c#cccc43)n2)cc1 (configuration not stated),1.0,-17
CCCc1cc(=O)[nH]c(SCC(=O)NC2CCCC2)n1,.,7
CC(C)c1cc(C(=O)O)n[nH]1,.,-3
CCCCOc1ccc(C2C(C#N)=C(N)OC3=C2C(=O)CC(C)(C)C3)cc1OC (configuration not stated),2.4,.
CC1CCCC(C)N1C(=O)c1cc2sccc2n1Cc1ccc(F)cc1 (configuration not stated),-1.1,10
CC(C)C(=O)NCc1n[nH]c(=O)c2ccccc12,.,6
COC(=O)CN1Cc2ccccc2C1=O,-2.0,.
CCOc1ccc(N2C(=O)CC(Sc3nc(O)c(CC)c(=O)[nH]3)C2=O)cc1 (configuration not stated),-0.9,8
O=C1c2ccccc2C(O)(c2ccccc2)N1c1ccc2c(c1)OCCO2 (configuration not stated),-3.5,0
CC(C)(C)C1(O)CC(C(F)F)=NN1C(=O)c1ccccc1 (configuration not stated),0.8,-6
CC(=O)Nc1ccc(Nc2ccccc2)cc1,-1.0,-2
O=C(c1ccc(Br)cc1)N(c1ccccn1)C1CCCCC1,2.7,9
O=C(Nc1nc2c(s1)CCCC2)c1ccncc1,42*,-5
CC(C)(C)c1ccc(CNC(=O)C2CCCN2C(=O)Nc2ccccc2)cc1 (configuration not stated),2.0,16
Cc1cc(Cl)ccc1OC(=O)c1sccc1C,-1.4,5

# Records listed above marked active in MgrA DNA FP.
SMILES,MgrA DNA FP,Sa helicase inh
O=C(Nc1nc2c(s1)CCCC2)c1ccncc1,42*,-5

# Next part:
SMILES,MgrA DNA FP,Sa helicase inh
COC(=O)Cn1cncn1,0.1,.
Cc1ccc(S(=O)(=O)N2CCN(C(=O)CN3CCOCC3)C2C(C)C)cc1 (configuration not stated),-0.5,5
O=S(=O)(c1cccc2cccnc12)N1CCN(Cc2ccc3c(c2)OCO3)CC1,.,28
CCN(/C=N/c1sc2c(c1C#N)CCCCC2)CC,-0.7,6
O=C1c2cccc3cccc(c23)C(=O)N1Cc1ccccn1,-0.9,.
CC(C)N1C(=O)C(O)(CC(=O)c2ccccc2O)c2ccccc21 (configuration not stated),-2.6,3
N#C/C(=C\c1ccc(Cl)c(Cl)c1)c1nc2ccccc2[nH]1,-0.6,.
CCCCCn1c(Sc2nc3ccccc3c(C)c2C#N)n[nH]c1=O,.,-18
C=CCNC(=S)N1CCN(C(c2ccccc2)c2ccccc2)CC1,0.6,11
CS(=O)(=O)Cc1cccc(C(=O)N2CCc3ccccc32)c1,.,-12
CCOC(=O)c1c(C)n(C)c2ccc(OCC(O)CN3CCN(CCO)CC3)cc12 (configuration not stated),.,3
Nc1nc2cc3c(cc2s1)OCCO3,1.6,-6
C[N+](C)(CCC#N)Cc1cccc2ccccc12,-0.9,2
Cc1ccc(-c2nc3ccccc3n3cc4c(=O)n(C)c(=O)n(C)c4c23)cc1,.,3
Cc1ccc(OCC(O)CN2CCCCC2)c(C)c1 (configuration not stated),.,-2
CCn1cc(-c2n[nH]c(=S)n2C)c2ccccc21,4.0,14
CC(C)(C)c1cc(C(C)(C)C)c2oc(C(=O)O)cc(=O)c2c1,-2.4,.
COc1ccc(Nc2ncnc3c2cnn3-c2ccccc2)cc1,.,9
O=C1C(=O)N(CCN2CCOCC2)C(c2ccc(F)cc2)/C1=C(\O)c1ccc(F)cc1 (configuration not stated),.,-2
CCC(=O)NC(C)C(c1cccs1)N1CCOCC1 (configuration not stated),4.5,15
O=C(Cc1c[nH]c2ccccc12)OCCOc1ccccc1,.,-11
CCn1c2[n+](c3ccccc3c1=O)CCC2,-1.3,20
Brc1ccc(-c2cc3n(n2)CCc2nc4ccccc4n2-3)cc1,.,0
N=C1SC2CS(=O)(=O)CC2N1CCc1ccccc1 (configuration not stated),.,-18
O=C(CN1CCN(c2ccccc2)CC1)NC(=O)Nc1ccc2c(c1)OCCO2,.,26

# Three compounds out of the list, ordered by SMILES length, largest number first:
SMILES,MgrA DNA FP,Sa helicase inh
O=C1C(=O)N(CCN2CCOCC2)C(c2ccc(F)cc2)/C1=C(\O)c1ccc(F)cc1 (configuration not stated),.,-2
COC(=O)CSCCS(=O)(=O)c1ccc(Cl)cc1,-1.4,.
CC1=NN(c2ccccc2)C(=O)C1=C(C)C,6.7,1

# More entries:
SMILES,MgrA DNA FP,Sa helicase inh
CCCN(CCC)C(=O)Cc1c(C)nc2c(-c3ccccc3)c(C)nn2c1C,2.5,9
CC1CN(c2ccc(NC(=S)NN)cc2)CC(C)O1 (configuration not stated),3.9,.
O=C(CC1(O)OC(c2ccc(Cl)cc2)=CC1=O)c1ccc(Cl)cc1 (configuration not stated),-0.8,5
CCn1c(CNC(=O)COC)nc2ccccc21,.,-19
CCOC(=O)c1c(N2C(=O)CCC2=O)sc2c1CCCC2,0.6,.
Cc1sc2ncnc(Oc3ccc(Cl)cc3Cl)c2c1C,2.5,-4
CCCCn1c(=N)n(CC(=O)OC)c2ccccc21,-0.8,14
O=S(=O)(Cc1noc(-c2ccc(C(F)(F)F)cc2)n1)c1ccc(Cl)cc1,1.8,.
